HPGD inh = inhibitors of human 15-hydroxyprostaglandin dehydrogenase (HPGD); P15428; actives 4.3% (n = 150,000); purified HPGD, NADH fluorescence kinetic, PGE2 substrate; Potency, µM, inactives show top-dose activity change, negative = inhibition, actives largely listed as inhibitors; AID 894; active = well fitted inhibition curve with a large enough effect (not every such curve was filed as active); inconclusive = small, poorly fitted or top-dose-only effect, or another doubt; inactive = no such curve, though single readings can be large or run the other way;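 further: top concentration of the series not given in the record; plate controls included wells without enzyme; inactives centre near -10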
Target sequence (P15428 whole entry, looked up): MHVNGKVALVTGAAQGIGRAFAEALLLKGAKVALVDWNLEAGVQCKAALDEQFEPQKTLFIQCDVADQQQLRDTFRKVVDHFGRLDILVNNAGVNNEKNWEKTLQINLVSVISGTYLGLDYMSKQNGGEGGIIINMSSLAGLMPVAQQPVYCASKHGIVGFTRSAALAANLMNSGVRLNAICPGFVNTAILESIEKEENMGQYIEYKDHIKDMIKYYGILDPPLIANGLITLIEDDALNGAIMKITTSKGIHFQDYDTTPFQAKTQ
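20 nM HPGD preincubated 15 min at room temperature with compound in 50 mM Tris-HCl pH 8, 0.01% Tween 20. Started with 1 mM NAD+ and 30 uM prostaglandin E2; NADH fluorescence (360/450 nm) read 5 times over 30-s intervals, last minus first.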
Active calls of the source: *; ? = inconclusive; & = joins results of further samples. On the % scale 0 is the no-effect control and ±100 the full control effect; potency means the concentration at half of the fitted maximal effect. This is a subset; the hit share may differ from the screen's.

SMILES	HPGD inh
CCOC(=O)/C(C(=O)Nc1ccccc1Br)=C1/NC(C)(C)Cc2ccccc21	-12.6%
COc1cc(C(=O)N(CCCO)Cc2cc3ccc(C)c(C)c3[nH]c2=O)cc(OC)c1OC	-24.9%
CCOc1ccccc1NC(=O)C1Cc2ccccc2CN1S(C)(=O)=O (configuration not stated)	-11.0%
Clc1cccc(/C(Cc2nc3ccccc3[nH]2)=N\Nc2ccccc2)c1	-15.4%
COc1ccccc1CNC(=O)c1ccccc1OCc1ccc(F)cc1	-20.5%
CCn1c(SCc2nc(-c3ccccc3)no2)nc2ccccc21	-3.7%
Cc1cccc(N2CCN(S(=O)(=O)c3cnc[nH]3)CC2)c1C	-3.7%
O=C(c1cn(-c2ccccc2)nc1-c1cccnc1)N1CCCCC1	-3.1%
COc1ccccc1NC(=O)Cc1nc(CCl)cs1	-1.4%
Cc1no[n+]([O-])c1COc1ccccc1/C=C1\NC(=S)NC1=O	?

An excerpt of these results, as comma-separated lines:
canonical_smiles,HPGD inh
CCn1c(SCc2nc(-c3ccccc3)no2)nc2ccccc21,-3.7%
COc1ccccc1CNC(=O)c1ccccc1OCc1ccc(F)cc1,-20.5%
COc1ccccc1NC(=O)Cc1nc(CCl)cs1,-1.4%

The list goes on.
SMILES	HPGD inh
CCOC(=O)C(NCCc1ccccc1F)(NC(=O)CC)C(F)(F)F (configuration not stated)	-10.0%
COc1ccc(CC(=O)N2CCc3ccccc32)cc1	-23.9%
Cc1ccc(C(=O)Oc2oc(-c3ccco3)nc2C=Nc2ccc(Cl)cc2)cc1	6.31µM*
O=C(c1ccc(S(=O)(=O)N2CCCCCC2)cc1)N1CCC(CN2C(=O)c3cccc4cccc(c34)C2=O)CC1	-9.7%
Cc1ccc(S(=O)(=O)N2C3C=CC(C3)C2C(=O)O)cc1 (configuration not stated)	4.1%
CCN1CCN(Cc2nc3c(c(=O)n(C)c(=O)n3C)n2Cc2cccc3ccccc23)CC1	-0.5%
CC(=Nc1ccccc1)C1=C(O)CSC1=O	-17.7%
Cc1ccc(-n2c3nc(=O)[nH]c(=O)c-3cc3cc([N+](=O)[O-])ccc32)cc1C	31.6µM*
O=C1c2ccccc2C(=O)c2c1ccc1c(=O)n(C3CCCCC3)[nH]c21	14.1µM*
O=C(Cn1cc2c(n1)CCCCC2)N1CCc2ccccc21	2.0%
COC(=O)C1=C(C)N=C2SC(C)C(=O)N2C1/C=C/c1ccccc1OC (configuration not stated)	-8.1%
CSc1cccc(NC(=O)CN(Cc2ccc(Cl)cc2)S(C)(=O)=O)c1	-4.9%
COCCCNC(=O)Cn1nnc(-c2ccccc2NC(=O)c2ccccc2F)n1	-0.8%
Cc1cccc(NCCC#N)c1	-8.4%
N#CCC(CNc1ncc(C(F)(F)F)cc1Cl)OC(=O)c1cccc([N+](=O)[O-])c1 (configuration not stated)	-11.1%
O=C1CSC(c2cn(-c3ccccc3)nc2-c2cccs2)N1Cc1ccccc1 (configuration not stated)	-13.4%
CC(C)(C)NC(=O)/C(=C\c1ccc(Br)cc1)NC(=O)c1cccs1	-8.6%
C=CCOc1ccccc1C1C2=C(CC(C)(C)CC2=O)Nc2c1c(=O)n(C)c(=O)n2C (configuration not stated)	?
CC1CCN(S(=O)(=O)N2CCC(C(=O)NCc3cccs3)CC2)CC1	-15.7%
COc1ccc(-c2cc(C(F)(F)F)n3nc(C(=O)N4CCOCC4)nc3n2)cc1	-21.3%
Cn1c(=O)c2c(nc(SCCN3CCCCC3)n2C)n(C)c1=O	2.2%
C[N+]1(C)CC2([N+](=O)[O-])CC=C(Oc3ccccc3)C([N+](=O)[O-])(C2)C1 (configuration not stated)	2.2%
CCn1c(CSc2nc3ccccc3s2)nnc1SCC(=O)c1ccc(O)cc1O	-6.7%
Cn1nnnc1SCC(=O)c1ccc(Br)s1	-14.7%
CCOc1cc(CNc2ccc(N3CCCCC3)cc2)cc(Br)c1OCC(=O)NC(C)(C)C	-13.7%
CCN(CC)c1ccc2c(c1)oc(=O)c1c(Cl)cc(=O)oc12	5.62µM*
CCc1nnc(NC(=O)CSc2nc3cccnc3n2C2CCCCC2)s1	-8.6%
CCc1ccc(/C=C(\Cl)c2nc3cc(Cl)ccc3c(=O)[nH]2)cc1	-13.0%
Cc1cc(O)c(C)c(O)c1C(=O)O	-4.4%
CCOC(=O)c1ccc(NC(=O)CSc2nnc(C3CC3)n2C)cc1	-13.4%

Reformatted with the structure last: part of the list above.
HPGD inh	molecule
-20.5%	COc1ccccc1CNC(=O)c1ccccc1OCc1ccc(F)cc1
-3.7%	CCn1c(SCc2nc(-c3ccccc3)no2)nc2ccccc21
-3.7%	Cc1cccc(N2CCN(S(=O)(=O)c3cnc[nH]3)CC2)c1C
-3.1%	O=C(c1cn(-c2ccccc2)nc1-c1cccnc1)N1CCCCC1
-1.4%	COc1ccccc1NC(=O)Cc1nc(CCl)cs1

Going on with the list:
SMILES	HPGD inh
COC(=O)C1=C(C)N(Cc2ccccc2)C(=O)N[C@H]1c1ccccc1	-1.8%&-7.3%
COc1cccc(N/C(N)=N/c2nc(C(F)(F)F)cc(=O)[nH]2)c1	-8.8%
COc1ccc(CN2C(=O)CN(C3CCCCCC3)C(=O)C2c2ccc(F)cc2)cc1 (configuration not stated)	-5.2%
Cc1ccc(S(=O)(=O)NCC(c2ccco2)N2CCOCC2)cc1 (configuration not stated)	1.0%
O=C(CSc1nc2ccccc2[nH]1)Nc1ccc2c(c1)OCCO2	-8.0%
O=c1ccsn1Cc1ccccc1	20µM*
O=C(c1ccco1)N1CCN(c2ncnc3scc(-c4ccccc4)c23)CC1	-19.6%
O=C(CSCc1ccc(F)cc1)NCc1ccco1	?
O=C1OCCC1Sc1nc(-c2ccccc2)cs1 (configuration not stated)	-19.0%
O=S(=O)(c1ccc(OCC(O)CN2CCCCC2)cc1)N1CCOCC1 (configuration not stated)	-4.8%
N#Cc1c(Nc2ccccc2)sc(C(=O)c2ccc(F)cc2)c1N	-16.5%
C=C(C)[C@H]1CC=C(C)/C(=N/NC(=O)CNc2ccccc2OC)C1	-12.5%
Cc1ccc(C(N)=O)cc1S(=O)(=O)Nc1cccc(C)c1C	-3.5%
Cc1c(Cl)cccc1NC(=O)CNC(=O)c1ccc(F)cc1	-12.6%
Cc1cccc(C)c1NC(=O)CNc1ccccc1	-21.9%
CCOc1ccc(C(C)=O)cc1N1C(=O)C2C3C=CC(C3=C(C)C)C2C1=O (configuration not stated)	-5.2%
CCN(C(=O)COC(=O)c1cc(C)n(-c2ccc(F)cc2)c1C)C1CCS(=O)(=O)C1 (configuration not stated)	-6.7%
Cc1ccc(OCC(=O)Nc2ccc(S(=O)(=O)Nc3onc(C)c3C)cc2)cc1	-5.2%
CC1CCCC(NC(=O)C2c3ccccc3C(=O)N2Cc2cccs2)C1C (configuration not stated)	-1.2%
Cc1ccc(-c2c3c(=O)n(C)c(=O)n(C)c3cn2N2CCOCC2)cc1	-9.3%
CCCCOC(=O)/C=C/c1ccc(OC(=O)OC)c(OC(=O)OC)c1	1.5%
CC1CC(C)CN(CCC(=O)Nc2cccc(Cl)c2)C1 (configuration not stated)	-9.5%
CCn1c(SCC(=O)Nc2cc3oc4ccccc4c3cc2OC)nnc1-c1cccs1	-4.2%
C/C(=N\NS(=O)(=O)c1ccc(C)c([N+](=O)[O-])c1)c1cc2ccccc2o1	-11.7%
O=C(Cc1ccc(Cl)c(Cl)c1)Nc1ccc(SC(F)F)cc1	-1.8%
CC(=O)NC(CCS(C)(=O)=O)C(=O)Nc1ccc(C)c(F)c1 (configuration not stated)	-12.8%
CCc1ccc(N2CSC3=C(C#N)C(c4cccs4)CC(=O)N3C2)cc1 (configuration not stated)	12.6µM*
CC1(C)CC(=O)C2=C(C1)N1C(=C(C#N)C2c2ccccc2Cl)N=C(N)c2ccccc21 (configuration not stated)	-1.9%
O=C(Nc1ccc(-c2cc3ccccc3oc2=O)c(Cl)c1)c1cccnc1	-27.4%
O=C(O)C1C2C=CC(C2)C1C(=O)OC1CC2CCC1C2 (configuration not stated)	-8.9%
COC(=O)CSc1nc2ncc(Cl)cc2[nH]1	?
Cc1cccc(Nc2nnc(SCc3cc(=O)n4cc(C)ccc4n3)s2)c1	15.8µM*
Cc1ccc(NCN2C(=O)C3CC=C(Cl)CC3C2=O)cc1 (configuration not stated)	-4.7%
CC(=O)C12C3C4C(C5C1C3C5(Br)C41OCCO1)C21OCCO1 (configuration not stated)	-3.4%
Cc1cnc(CNc2ncncc2-c2ccccc2C#N)cn1	-12.0%
CC(=O)c1ccc2c(c1)C1C=CCC1C(c1ccncc1)N2 (configuration not stated)	-6.1%
Cc1ccc(C(=O)Nc2ccc(C(=O)/C=C/c3cccs3)cc2)cc1	-10.6%
CC1(C)S[C@@H]2[C@H](NC(=O)C3(N)CCCCC3)C(=O)N2[C@H]1C(=O)O	-13.0%
Cc1c(C(=O)NC(C)C)c(-c2ccccc2)nn1-c1ccccc1	-13.3%
CCOc1cc(C)c(C(C)C)cc1S(=O)(=O)N1CCOCC1	-9.0%
Nc1ccc2c(c1)C(=O)N(CCCC(=O)O)C2=O	-22.9%
COc1ccc(NC(=S)NNC(=O)c2nnn(-c3ccccc3)c2C)cc1	-8.7%
CN(C)CCNC(=O)c1ccc2c(c1)N(Cc1ccc(F)cc1)CCS2	?
CN1CCN(CCCNC(=O)C2CCN(c3nnc(-n4cccc4)s3)CC2)CC1	-3.8%
COc1ccc2cc3cc(C(=O)Nc4ccc5c(c4)OCCO5)oc3nc2c1	-6.4%
CCN(CC)CCCNC(=O)c1ccc2c(SCC(=O)O)c3c(nc2c1)CCC3	-7.7%
COc1cc(-c2cc(C(=O)Nc3nc4ccccc4s3)c3ccccc3n2)cc(OC)c1OC	-20.5%
Cc1cccn2c(=O)c(/C=C(\C#N)C(=O)NCc3ccco3)c(N3CCCC(C)C3)nc12 (configuration not stated)	15.8µM*
Cc1cc(C)c(C)c(S(=O)(=O)NCC(=O)N2CCCC2)c1C	-1.5%
Cc1sc(NC(=O)c2ccccc2)c(C(=O)c2ccccc2)c1C	3.55µM*
Additional results:
SMILES	HPGD inh
CCN(CC)S(=O)(=O)c1cc(NC(=O)CN2C(=O)NC3(CCCc4ccccc43)C2=O)ccc1C (configuration not stated)	-7.9%
Nc1nc(-c2ccc(Br)cc2)c(S(=O)(=O)c2ccccc2)s1	-3.4%
COc1ccc(CNC(=O)c2noc(C(C)C)c2[N+](=O)[O-])cc1	-9.3%
CC(=O)NCc1c(Cl)cccc1-n1cccc1	-11.4%
COc1cc(CNCCN2CCOCC2)ccc1OCc1ccc(Cl)cc1Cl	-2.9%
COc1ccc(C(=O)COC(=O)C(CCCCN2C(=O)C3C4C=CC(C4)C3C2=O)N2C(=O)C3C4C=CC(C4)C3C2=O)cc1 (configuration not stated)	-2.1%
COc1ccc(NC(=O)C(c2ccccn2)N(C(C)=O)c2ccc(C)cc2)cc1 (configuration not stated)	-7.7%
COC(=O)NC(c1ccccc1)c1c[nH]c2ccccc12 (configuration not stated)	-5.1%
O=C(Nc1nccs1)c1cc(S(=O)(=O)N2CCOCC2)c(Cl)cc1Cl	1.5%
COC(=O)c1c(-c2cccc(OC)c2)csc1N	-18.6%
COc1ccc(CC(=O)Nc2cc(S(=O)(=O)N3CCCCC3)ccc2N2CCN(C)CC2)cc1	-7.2%
CCCCC(=O)Nc1nc(C)c(-c2csc(Nc3cc(OC)ccc3OC)n2)s1	-25.6%
CS(=O)(=O)N1CCN(C(=O)c2ccccc2F)CC1	1.3%
O=C(Cn1nc(-c2ccccc2)c2ccccc2c1=O)Nc1cccnc1	-15.0%
Cc1ccc(OC(=O)c2cccc(S(=O)(=O)N3CCCC3)c2)c(-n2nc3ccccc3n2)c1	?
CC1=C(CC(=O)O)c2cc(F)ccc2/C1=C\c1ccc(S(C)=O)cc1 (configuration not stated)	-25.7%&-19.8%&-25.2%&-5.5%
COC(=O)c1ccc(NS(=O)(=O)c2cccc3cccnc23)cc1	-6.8%
Clc1ccc(-c2nnc3n2CCCCS3)cc1	?
CC(=O)NCCn1c(SCC#N)nc2ccccc2c1=O	-8.0%
C[N@+]1(CCC(=O)c2ccccc2)CC[C@H]2CC[C@H](C2)C1	-4.9%
COc1ccc(C(C#N)Nc2ccccc2)cc1 (configuration not stated)	-14.0%
CCC(C)c1ccc(O[C@@H]2O[C@H](CO)[C@@H](O)[C@H](O)[C@H]2NC(C)=O)cc1 (some centres not stated)	-12.6%
COc1cc2c(OC)cccc2cc1C(=O)O	?
CN(C)c1ccc(C2SCCN2C(=O)c2ccc([N+](=O)[O-])cc2)cc1 (configuration not stated)	-2.3%
C=CCSc1cc(C)nc2c(-c3ccc(Cl)cc3)c(C)nn12	?
NC(=O)C1CCN(C(=O)CSCc2ccccc2Cl)CC1	1.4%
O=c1[nH]ncn2cccc12	-5.6%
COc1cc(OC)cc(C(=O)OCC(=O)Nc2ccc(N3CCCCC3)cc2)c1	-3.0%
COC(=O)[C@@H]1C[C@@]2(O)[C@H](O)[C@H](O)[C@H](O)C[C@H]2N1Cc1ccc(N2CCOCC2)cc1	-21.4%
CC(=O)Nc1ccc(S(=O)(=O)NNC(=O)COc2cccc(C)c2)cc1	-14.8%
COc1ccccc1-n1c(SCC(=O)Nc2nnc(C)s2)nc2c(c1=O)SCC2	-10.3%
NC(=O)/C(=C\c1ccccc1)NC(=O)/C=C/c1ccccc1	-8.3%
CC1=C(C(=O)Nc2cccc(C)c2C)C(c2cccs2)NC(=S)N1 (configuration not stated)	-12.6%

Ordered by the number under HPGD inh (descending): some entries from above
Molecule,HPGD inh
COc1ccccc1-n1c(SCC(=O)Nc2nnc(C)s2)nc2c(c1=O)SCC2,-10.3%
CCC(C)c1ccc(O[C@@H]2O[C@H](CO)[C@@H](O)[C@H](O)[C@H]2NC(C)=O)cc1 (some centres not stated),-12.6%
COc1ccc(C(C#N)Nc2ccccc2)cc1 (configuration not stated),-14.0%
